Screening data deposited in PubChem by National Center for Advancing Translational Sciences (NCATS).
GLA inh pH 4.5 – blocks human alpha-galactosidase A at pH 4.5; 230,000 tested, under 10 active; purified enzyme, 4-MU-alpha-Gal fluorescence, pH 4.5; P06280; activity change, negative = inhibition, % at 105 µM; AID 1467; inconclusive = small, poorly fitted or top-dose-only inhibition, or a rising curve; inactive = flat fitted curve, though single readings scatter; no compound was filed as active;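 also: 0% = full activity with enzyme and -100% = basal without enzyme; dose as in the result columns while the protocol names 77 µM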
miR-21 reporter – miR-21 reporter, rising signal | HeLa miR-21 FLuc reporter, luciferase, 48 h | Potency, µM (top dose mostly 38.3 µM), inactives show at the top dose reporter change, positive = more light | 340,000 tested, under 10 active | AID 2288; active = well fitted rising curve with a large enough effect; inconclusive = small, poorly fitted or top-dose-only effect; inactive = no such curve, though single readings can be large or run the other way;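 also: % of control where 0% means no effect; miR-21 action dims this reporter so a rising signal means less miR-21 action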
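Luminescence from a firefly luciferase reporter carrying a miR-21 binding site downstream, stably expressed under a CMV promoter in HeLa cells that make miR-21 endogenously, reports miRNA modulation after 48 h compound exposure up to approximately 40uM final.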
Rango dissoc inh – inhibitors of RanGTP-induced Rango-importin beta complex dissociation. Biochemical FRET Rango-importin beta, RanGTP-induced dissociation. Potency, µM (top dose mostly 46.1 µM), for inactives: top-dose activity change, negative = inhibition. actives 0.071% (n = 340,000). AID 540253; active means falling FRET ratio curve, often poorly fitted, with flat reads before Ran was added; inconclusive means other falling curves, or compound fluorescence or quenching; inactive means flat or rising ratio curve;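 also: potency is read from the fitted curve at half-maximal effect; % of control where 0% means no effect; nearly all actives have a fitted effect of over 45% in size; -100% = wells without RanGTP and RCC1; the record marks most hits as doubtful in a second field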
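Quantitative HTS using a FRET biosensor: 0.1 uM Rango, 0.25 uM importin beta, 0.6 uM Ran, 2 mM GTP, 0.2 uM RCC1 final, PBS with DTT, Tween-20 and BSA. Post-read taken 45 min after Ran addition.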
Rango complex inh – prevents formation of the Rango-importin beta complex. Q14974. Rango CFP/YFP FRET sensor + importin beta, 45 min. Potency, µM (doses to about 92.2 µM), without a hit: top-dose inhibition of complex formation. actives 0.031% (n = 340,000). AID 540263; active = rising FRET ratio curve, often small or poorly fitted; inconclusive = mostly compound fluorescence or quenching in the first reads; inactive = flat curves in all reads;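 also: potency is read from the fitted curve at half-maximal effect; 0% = DMSO wells and 100% = buffer wells lacking importin beta; nearly all actives have a fitted effect of over 15% in size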
Target sequence (Q14974 whole entry, looked up): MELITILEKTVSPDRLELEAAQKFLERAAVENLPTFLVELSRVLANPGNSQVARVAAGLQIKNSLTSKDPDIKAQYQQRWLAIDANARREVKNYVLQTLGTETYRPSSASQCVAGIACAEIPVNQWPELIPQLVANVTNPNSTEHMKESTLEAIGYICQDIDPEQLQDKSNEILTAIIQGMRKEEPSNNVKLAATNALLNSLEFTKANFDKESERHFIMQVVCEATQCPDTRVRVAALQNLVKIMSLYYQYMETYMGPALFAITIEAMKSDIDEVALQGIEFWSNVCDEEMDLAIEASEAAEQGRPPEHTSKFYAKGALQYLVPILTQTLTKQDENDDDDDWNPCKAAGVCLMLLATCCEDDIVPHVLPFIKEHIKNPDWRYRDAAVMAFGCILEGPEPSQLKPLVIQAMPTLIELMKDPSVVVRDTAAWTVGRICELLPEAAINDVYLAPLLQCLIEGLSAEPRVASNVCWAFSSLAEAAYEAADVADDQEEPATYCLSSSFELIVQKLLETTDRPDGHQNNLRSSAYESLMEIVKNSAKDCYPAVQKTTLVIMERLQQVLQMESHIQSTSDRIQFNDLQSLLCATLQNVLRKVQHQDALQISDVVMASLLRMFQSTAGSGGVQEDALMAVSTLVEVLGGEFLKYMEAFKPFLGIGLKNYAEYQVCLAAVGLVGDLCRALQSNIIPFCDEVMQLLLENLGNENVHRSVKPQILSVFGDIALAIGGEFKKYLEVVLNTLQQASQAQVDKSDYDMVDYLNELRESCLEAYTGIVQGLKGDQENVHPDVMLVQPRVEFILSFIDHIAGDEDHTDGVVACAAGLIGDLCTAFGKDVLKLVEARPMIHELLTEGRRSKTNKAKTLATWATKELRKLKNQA
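FRET biosensor (snurportin 1 IBB flanked by EYFP and cerulean), 50 nM, with compound 5 min, then 0.125 microM importin beta in PBS, 1 mM DTT, 0.02% Tween-20, 0.1% BSA. CFP/YFP ratio read after 45 min at room temperature; pre-read flags interference.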
The depositor's hits bear a star; u = inconclusive; x = not tested or not shown. Some of the compounds tested, so the mix of outcomes need not match the whole.

SMILES	GLA inh pH 4.5	miR-21 reporter	Rango dissoc inh	Rango complex inh
CCn1c(C(O)c2cc(OC)c(OC)c(OC)c2)nc2ccccc21 (stereo not given)	x	3.8%	0.0%	-2.1%
Cc1cc(C)n2ncc(C(=O)Nc3cccc(O)c3)c2n1	1.5	-4.1%	5.2%	0.5%
Clc1ccc(-c2cnnc(-c3ccccn3)n2)cc1	x	x	-13.2%	0.1%
CCOC(=O)C1CCCN(C(=O)COC(=O)c2ccc(C#N)cc2)C1 (stereo not given)	1.4	0.8%	-17.3%	-0.6%
CCOC(=O)C(C)Oc1ccc(OCc2ccccc2)cc1 (stereo not given)	8.8	-4.2%	0.3%	0.4%
Cc1ccc2c([N+](=O)[O-])c(C)ccc2n1	-7.2	-2.8%	8.8%	1.7%
CCCC(=O)Nc1c(-c2ccccc2Cl)c(=O)c2ccccc2n1C	x	-1.4%	u	-1.7%
Cc1ccc(OC(=O)CCC(=O)Nc2ccc(C)c(C)c2)cc1	x	x	-12.3%	1.4%
C/C(=N\NC(=O)c1c(-c2ccccc2Cl)noc1C)c1cccc(NC(=O)C(C)C)c1	-6.0	0.3%	5.9%	3.7%
C=CCNC(=O)/C(C#N)=C\c1cc(Cl)c(OCC)c(OC)c1	4.2	-3.5%	-2.7%	-1.4%
COC(=O)c1ccc(OCC(O)CN2CCN(C(=O)c3ccco3)CC2)c(OC)c1 (stereo not given)	x	11.5%	-1.8%	2.6%
COc1ccc(/C=N/Nc2nc3ccccc3[nH]2)cc1OC	-1.8	-51.1%	-3.6%	3.5%
O=C(COc1ccccc1Cl)NCCNC(=O)c1ccco1	x	-4.1%	-5.1%	-0.5%
CCOC(=O)c1cc(CC)sc1NC(=O)COC	-2.6	-2.1%	-0.6%	2.2%
COC(=O)NNC(=O)/C=C/c1ccccc1	-3.3	-3.2%	-3.1%	0.3%

Shown with bars between the fields: 5 of the compounds above
compound | GLA inh pH 4.5 | miR-21 reporter | Rango dissoc inh | Rango complex inh
COC(=O)NNC(=O)/C=C/c1ccccc1 | -3.3 | -3.2% | -3.1% | 0.3%
COc1ccc(/C=N/Nc2nc3ccccc3[nH]2)cc1OC | -1.8 | -51.1% | -3.6% | 3.5%
COC(=O)c1ccc(OCC(O)CN2CCN(C(=O)c3ccco3)CC2)c(OC)c1 (stereo not given) | x | 11.5% | -1.8% | 2.6%
Cc1ccc(OC(=O)CCC(=O)Nc2ccc(C)c(C)c2)cc1 | x | x | -12.3% | 1.4%
CCOC(=O)c1cc(CC)sc1NC(=O)COC | -2.6 | -2.1% | -0.6% | 2.2%

Later entries.
SMILES	GLA inh pH 4.5	miR-21 reporter	Rango dissoc inh	Rango complex inh
COc1ccc(-c2cc(C(=O)O)c3sc(N4CCCCC4)nc3n2)cc1OC	15.0	-10.6%	u	u
CN(C)S(=O)(=O)c1ccc(C(=O)NCCc2ccco2)cc1	x	-34.6%	0.3%	1.6%
N#CC1=C(N)N2C(=C(C#N)C1c1cccc(Br)c1)Nc1ccccc12 (stereo not given)	6.7	-6.7%	u	u
O=C(NCCCc1ccccc1)c1cc([N+](=O)[O-])ccc1Cl	7.7	14.8%	12.1%	-3.7%
Cc1ccc(OCC(=O)Nc2ccccc2-c2ccccc2NC(=O)COc2ccc(C)cc2)cc1	-2.3	-6.5%	20.1%	6.1%
COc1ccc(NC(=O)c2ccc[n+]([O-])c2)cc1	x	0.3%	-0.1%	0.0%
CCn1c(SCC(=O)Nc2ccc(N3CCOCC3)cc2)nnc1-c1ccncc1	x	-5.4%	-3.0%	-0.3%
O=C1NC(=S)N(C(=O)c2ccc(F)cc2)/C1=C/c1cccnc1	-6.4	-11.0%	-1.2%	0.8%
Cn1c(N)c(C(=O)COC(=O)C(Cc2ccccc2)NC(=O)c2ccccc2)c(=O)n(C)c1=O (stereo not given)	6.9	5.5%	-11.1%	-3.8%
O=C(c1cc2c(=O)n3ccccc3nc2s1)N1CCN(Cc2ccccc2)CC1	x	-6.2%	u	u
Cc1cc(N2CCOCC2)n2cc(-c3ccc(F)cc3)nc2n1	-0.8	-3.8%	1.5%	0.2%
CCOc1cc(C(C(=O)NCC2CCCO2)N(C(=O)Cn2nnc3ccccc32)c2ccccc2C(C)=O)ccc1O (stereo not given)	x	-0.4%	3.0%	-1.5%
Cc1ccc(C(=O)N/C(=C\c2cccc([N+](=O)[O-])c2)C(=O)OCN2C(=O)c3ccccc3C2=O)cc1	-0.4	-1.6%	10.8%	-4.6%
COC(=O)C(C)N=Cc1ccccc1 (stereo not given)	6.5	0.9%	-21.2%	-2.7%
COc1ccc(C)cc1NC(=O)CN1CCN(c2ccccn2)CC1	x	-11.2%	7.3%	-0.7%
Cc1ccccc1OCCC(=O)N1CCN(S(=O)(=O)c2ccccc2F)CC1	x	-0.1%	9.6%	-2.6%
CC1=NNC(=O)C1CC(=O)N/N=C/C=C/c1ccccc1 (stereo not given)	2.7	-3.3%	7.8%	u
COc1ccc(NS(=O)(=O)c2cccc(C(=O)O)c2)cc1	-4.9	0.9%	-1.7%	-1.3%
CCOc1ccc(NC(=O)CSc2n[nH]c(=O)n2-c2ccccc2)cc1	3.2	-1.4%	-4.9%	0.7%
COc1ccc(NC(C)=O)cc1NC(=O)CN1CCN(CC(=O)Nc2ccc(Cl)cc2)CC1	4.4	-2.8%	-6.4%	2.9%
NS(=O)(=O)c1ccc(CNC(=O)c2ccc(S(=O)(=O)NCc3ccco3)cc2)cc1	x	x	-14.3%	-3.2%
CCOc1ccc(N2C(=O)CC(N(Cc3ccco3)C(=O)CC)C2=O)cc1 (stereo not given)	5.0	-2.4%	16.4%	4.5%
COc1cc(C(=O)Nc2ccccc2-c2nnn(CC(N)=O)n2)cc(OC)c1OC	-2.6	0.8%	-0.5%	0.8%
COc1ccc2oc(C(=O)OC(C)C(=O)Nc3ccc(N4CCOCC4)cc3)c(C)c2c1 (stereo not given)	x	x	-7.3%	-0.9%
CCc1[nH]nc2c1C(c1cccnc1)C(C#N)=C(N)O2 (stereo not given)	-1.4	-9.4%	1.1%	-0.3%
NC(=O)/C=C/C(=O)Nc1ccc(Cl)cc1	0.6	8.0%	4.6%	0.2%
COc1cccc(NC(=O)c2ccc(NCCCN3CCC(C)CC3)c([N+](=O)[O-])c2)c1	-0.7	-6.1%	12.4%	-0.1%
CC(=O)c1c(N)n(C)c(=O)n(C)c1=O	-4.3	-3.3%	1.8%	-1.5%
Cc1cc(C)nc(/N=C(\N)Nc2ccc(S(=O)(=O)Nc3nc(C)cc(C)n3)cc2)n1	2.9	-6.5%	x	x
COc1ccccc1OCc1nc(Cc2ccc(Cl)cc2)no1	-5.6	-12.8%	2.2%	1.8%
NC(=O)C1CCN(CC(O)CSc2ccccc2)CC1 (stereo not given)	-6.0	-7.7%	13.6%	1.3%
Cc1occc1-c1nnc(SCC(=O)N2CCOCC2)n1Cc1ccco1	8.5	2.8%	2.4%	-0.8%
O=C(Cn1cc(C(F)(F)F)ccc1=O)N1CCCc2ccccc21	x	x	1.1%	0.8%
Cc1ccc(S(=O)(=O)Cc2ccc(C(=O)N3CCN(Cc4ccccc4)CC3)o2)cc1	0.4	-2.6%	x	x
COc1cc(C)ccc1OCc1cc(C(=O)NC(C)Cn2cncn2)no1 (stereo not given)	x	-51.2%	-10.6%	-0.1%
CCOC(=O)C1=C(CC)Nc2ccccc2N=C1NC(=O)c1cccc(S(=O)(=O)N2CCOCC2)c1	x	x	1.0%	-4.1%
Cc1nnc(SCC(=O)Nc2ccc(S(=O)(=O)N3CCCC3)cc2)n1N	-0.2	6.5%	9.7%	-2.0%
CC(C)(C)c1ccc(C(=O)NCCC(=O)Nc2ccc3c(c2)OCCO3)cc1	x	x	-8.7%	-0.2%
COc1ccc(N(CC(=O)Nc2cccc(C(=O)O)c2)S(=O)(=O)c2c(C)noc2C)cc1	8.9	-4.0%	2.5%	3.3%
COc1ccc(OC)c(C(=O)c2c(C)oc3cc(Br)c(O)c(CN(C)C)c23)c1	x	x	-16.7%	6.3%
O=C(CNC(=O)c1ccccc1)NCC(=O)OCC(=O)c1ccc([N+](=O)[O-])cc1	-0.9	-1.3%	-9.2%	4.1%
O=C(Cn1c(=O)[nH]c2ccsc2c1=O)N1CCN(c2ccc(F)cc2)CC1	4.7	-4.4%	-10.1%	1.9%
O=C(NCc1cccs1)c1cccc(Nc2nc3ccc(Br)cc3[nH]2)c1	-17.0	-9.9%	-12.2%	-1.2%
CC1CCCC(NC(=O)CSc2ncccc2C(=O)O)C1C (stereo not given)	-8.7	-5.2%	-2.0%	-2.3%
Cc1sc2nc(CN3CCCC3)nc(N3CCC(C(N)=O)CC3)c2c1C	11.3	-4.1%	u	u
COc1cc(/C=C(\CC(=O)O)c2nc3ccccc3s2)cc(OC)c1O	-9.8	-1.4%	u	u
O=C(Nc1cccc(-c2nc3cc(Cl)ccc3o2)c1)C1CCCO1 (stereo not given)	-4.0	-25.5%	2.3%	-0.1%
COC(=O)/C=C1/N/C(=N\c2nc(C)cc(C)n2)N(c2ccccc2)C1=O	2.7	-4.1%	5.4%	-1.9%
COC(=O)CN(c1cccc(C(C)=O)c1)S(C)(=O)=O	-0.2	-7.3%	5.7%	-6.9%
CCCNC(=S)NC1CC2CCC(C1)N2Cc1ccccc1 (stereo not given)	1.9	-2.5%	5.6%	1.7%
COc1ccccc1OCCNC(=O)Cc1ccc(S(=O)(=O)N2CCOCC2)s1	x	x	-7.8%	0.9%
O=C(Nc1ccccc1C(=O)NCc1ccccc1)c1ccco1	-0.3	-0.1%	21.7%	-0.9%
CC(C)(C)Cc1nc(-c2ccccn2)no1	-8.7	-38.5%	6.9%	0.0%
CC1(c2nnc(-c3ccncc3)o2)CC(c2ccc([N+](=O)[O-])cc2)=NO1 (stereo not given)	1.8	2.2%	-6.5%	-3.0%
Cc1ccc(S(=O)(=O)Nc2ccc(N(C)S(=O)(=O)c3ccc(C)cc3)cc2)cc1	-4.1	7.4%	3.1%	3.3%
O=C1/C(=C/c2cccnc2)Sc2ccccc21	1.2	-28.1%	u	u
COc1ccc(N2CC(NC(=O)N3CCN(C(=O)c4ccco4)CC3)CC2=O)cc1OC (stereo not given)	x	x	15.7%	0.3%

Single records, as listed above. Screens in order: GLA inh pH 4.5, miR-21 reporter, Rango dissoc inh, Rango complex inh
`COc1ccc(N2CC(NC(=O)N3CCN(C(=O)c4ccco4)CC3)CC2=O)cc1OC` (stereo not given) is listed with x, x, 15.7%, 0.3%
`COc1ccccc1OCCNC(=O)Cc1ccc(S(=O)(=O)N2CCOCC2)s1` is listed with x, x, -7.8%, 0.9%
`COc1cc(/C=C(\CC(=O)O)c2nc3ccccc3s2)cc(OC)c1O` is listed with -9.8, -1.4%, u, u
`Cc1ccc(S(=O)(=O)Nc2ccc(N(C)S(=O)(=O)c3ccc(C)cc3)cc2)cc1` is listed with -4.1, 7.4%, 3.1%, 3.3%
`O=C1/C(=C/c2cccnc2)Sc2ccccc21` is listed with 1.2, -28.1%, u, u
